HTT prom inh = Primary qHTS for Identification of Small Molecule Inhibitors of Huntingtin Promoter Activity; hit rate 0.93% among 48,000; Potency, µM (series often up to 57.5 µM), without a hit: at the top dose activity change, negative = inhibition, most hits filed as inhibitors; HEK293 HTT promoter firefly luciferase reporter (activity 0% = vehicle and -100% = no light), 24 h; active = well fitted inhibition curve with a large enough effect; inconclusive = small, poorly fitted or top-dose-only effect; inactive = no such curve, though single readings can be large or run the other way; note: nearly all actives have a fitted effect of over 50% in size
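Firefly luciferase signal from promoter-reporter HEK293 cells was scaled between vehicle (0%) and zero RLU (-100%). Compounds were tested at final concentrations of up to 57.5 uM over 24 h at 37 degrees C. PTC124 at 50 uM final served as control inhibitor.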
PMP22 txn = Cell-based coincidence reporter assay to measure PMP22 gene transcription in S16 Pmp22-F2sN cells - Primary screen | AID 1508649, 2021 | hit rate 2% among 43,000 | S16 Pmp22-F2sN Schwann cells (luciferase reporters placed in the Pmp22 gene), FLuc/NLuc coincidence luminescence, 24 h | Potency, µM (highest dose often 57.5 µM), for inactives: at the highest dose activity change, negative = inhibition, most hits filed as inhibitors; active = clear falling dose curves in both reporters; inconclusive = both reporters move, but less clearly or upward; inactive = either reporter flat; the % is the NLuc reporter signal; note: % is set by controls: 0 for no effect and ±100 for the full control effect; some results filed as inactive show a strong effect at the top dose
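S16 Schwann cells carrying FLuc/NLuc coincidence reporter in the Pmp22 3' UTR treated with compound 24 h at 37C; FLuc then NLuc luminescence read sequentially by dual-luciferase reagents.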
* marks the source's active call; other numbers are inactive results; ? = inconclusive; / = no result given; [ ] = remark or other dose. Potency is the fitted concentration of half-maximal effect.

Screens in order: PMP22 txn, HTT prom inh
CNC(=O)c1ccc(Nc2nnc(-c3ccc(C)c(S(=O)(=O)N(C)C)c3)c3ccccc23)cc1
 : -18.6%, -18.8%
CCN(C(=O)c1cc2cc3ccc(OC)cc3nc2o1)c1cccc(C)c1
 : ?, -14.6%
COc1ccc(-c2onc(C)c2C)cc1S(=O)(=O)NCCc1ccccc1
 : ?, ?
CCOc1ccccc1NC(=O)Cc1csc(COc2cccc(C)c2)n1
 : 6.6%, -24.7%
CCCCN(CCCC)CCNC(=O)c1cn(CC)c2ccc(S(=O)(=O)N3CCc4ccccc4C3)cc2c1=O
 : ?, -23.3%
COc1ccc(OCC(=O)Nc2cccc(-c3nc4ccccc4s3)c2C)cc1
 : 3.6%, ?
CCCOC(=O)c1c(NC(=O)C2c3ccccc3Oc3ccccc32)sc2c1CCC(C)C2 (stereo unspecified)
 : -7.2%, -23.5%
CCN1CCN(C(=O)Cn2c(-c3cccs3)cc3ccccc32)CC1
 : -27.2%, -6.8%
CCOc1cc2c(c(F)c1OCC)C(=N)N(CC(=O)c1cc(N3CCOCC3)c(OC)c(C(C)(C)C)c1)C2
 : /, ?
COc1ccc(N2CCN(C(=O)Cn3cnc4sc(C)c(S(=O)(=O)N5CCCCC5)c4c3=O)CC2)cc1
 : -22.7%, -9.5%
Cc1ccc(Cl)cc1NC(=O)Cn1c(=O)oc2cc(S(=O)(=O)N3CCCC3)ccc21
 : ?, -50.9%
CCCNC(=O)Cn1c(=O)cc(C)c2c(C)nn(-c3cccc(F)c3)c21
 : ?, -8.1%
CC(=O)Nc1ccc(S(=O)(=O)NCC2CCC(C(=O)NCCc3ccc(C)cc3)CC2)cc1 (stereo unspecified)
 : 3.2%, 5.9%
CCC1CN(C(=O)Nc2ccccc2F)c2cc(C)ccc2O1 (stereo unspecified)
 : 0.1%, 0.4%
CCCCNC(=O)NS(=O)(=O)c1ccc(N)cc1
 : /, -7.2%
CCCCOC(=O)c1ccc(NC2=NS(=O)(=O)c3ccccc32)cc1
 : -8.8%, -10.0%
Cc1ccc(OCC(=O)Nc2nc(-c3ccc(Br)cc3)ns2)cc1C
 : ?, -1.0%
CCN1C(C(=O)c2ccccc2)=C(NC(=O)c2ccc(Cl)cc2)c2ccccc2S1(=O)=O
 : -1.3%, -28.5%
COc1cccc(NC(=O)CSc2cc(=O)n(C)c3ccc(Cl)cc23)c1
 : ?, ?
CCSc1ncc(Cl)c(C(=O)Nc2nc3ccc(OC)cc3s2)n1
 : -10.9%, 1.3%
COC(=O)c1cc2sccc2n1Cc1ccc(F)cc1Cl
 : -1.8%, -18.7%
CCOC(=O)c1cc(-c2ccc(C)cc2)n(CCC(=O)Nc2cc(Cl)ccc2C)c1C
 : -19.1%, 6.6%
O=C(c1cccn1-c1nnc(N2CCCCC2)s1)N1CCN(c2ccc(Cl)cc2)CC1
 : ?, -28.4%
Cc1cc2oc(C(=O)Nc3ccc(S(=O)(=O)Nc4ncccn4)cc3)cc(=O)c2cc1C
 : -5.5%, -9.1%
COc1ccc(NCc2cc3ccc(OC)cc3n(CC(=O)Nc3ccc(C)c(C)c3)c2=O)cc1
 : ?, ?
FC(F)(F)c1ccc(C2=Nc3ccccc3NC(c3cccs3)=N2)cc1
 : -30.0%, -35.7%
O=C(Cn1cc(C(=O)c2ccco2)c2ccccc21)Nc1ccccc1C(F)(F)F
 : 11.9µM*, -34.7%
O=C(OCc1cc(=O)n2nc(-c3cccs3)sc2n1)c1ccccc1Cl
 : -11.7%, 8.8%
CSc1cccc(NC(=O)Cn2nnc(C(=O)NCCc3ccccc3)c2N)c1
 : -27.2%, -21.7%
O=C(CSc1nc2ccsc2c(=O)n1Cc1ccccc1Cl)NCc1ccc(F)cc1
 : ?, -24.9%
COc1cccc(N2CCN(c3ncnc4c3c(-c3ccccc3)cn4-c3cccc(C(F)(F)F)c3)CC2)c1
 : 2.4%, -26.2%
Nc1c(C(=O)Nc2cccc(F)c2)c2ccccn2c1C(=O)c1ccccc1
 : ?, -1.5%
CCCS(=O)(=O)NCCc1csc2nc(-c3ccc(C)cc3)nn12
 : -11.7%, ?
Cc1cc(-c2ccc(S(=O)(=O)Nc3cccc(C)c3C)s2)on1
 : 10µM*, ?
Cc1ccccc1NC(=O)c1ccc2nc(Cc3ccccc3)oc2c1
 : -14.1%, -29.9%
CCc1nnc(SCc2ccc(F)cc2Cl)c2cc3sccc3n12
 : -12.9%, 8.0%
O=C(COc1ccc(Cl)cc1)Nc1sc2c(c1C(=O)Nc1cccc(Cl)c1)CCCC2
 : ?, -4.4%
CC(C(=O)O)c1ccc(CC2CCCC2=O)cc1 (stereo unspecified)
 : /, -2.5%
CCc1ccc(NC(=O)Cn2c(=O)n(-c3cc(C)cc(C)c3)c(=O)c3oc4ccccc4c32)cc1
 : 14.9%, -4.7%
CCOc1ccc(NC(=O)Cn2c(=O)n(-c3ccc(C)cc3)c(=O)c3cc(OC)c(OC)cc32)cc1
 : ?, 2.7%

Sorted by the number under HTT prom inh (falling): five of the compounds above.
SMILES | HTT prom inh
CCc1nnc(SCc2ccc(F)cc2Cl)c2cc3sccc3n12 | 8.0%
O=C(CSc1nc2ccsc2c(=O)n1Cc1ccccc1Cl)NCc1ccc(F)cc1 | -24.9%
O=C(c1cccn1-c1nnc(N2CCCCC2)s1)N1CCN(c2ccc(Cl)cc2)CC1 | -28.4%
Cc1ccccc1NC(=O)c1ccc2nc(Cc3ccccc3)oc2c1 | -29.9%
O=C(Cn1cc(C(=O)c2ccco2)c2ccccc21)Nc1ccccc1C(F)(F)F | -34.7%

Going on with the list.
Screens in order: PMP22 txn, HTT prom inh
CC(=O)c1ccc(N2CCN(C(=O)CCS(=O)(=O)c3ccc4c(c3)oc(=O)n4C)CC2)cc1
 : 9.7%, 9.4%[11.5 µM]
Cc1cccc(-c2nc3c4c(-c5ccccc5)c(-c5ccccc5)oc4ncn3n2)c1
 : -0.6%, 1.8%
COc1ccccc1C(=O)Nc1ccc2nc(SCC(=O)N3CCCC3)sc2c1
 : 1.5%, 8.6%
CC(=O)N1CCCc2cc(S(=O)(=O)N3CCCC(C(=O)Nc4ccc(F)cc4F)C3)ccc21 (stereo unspecified)
 : ?, ?
COc1ccc(CCNC(=O)c2nc(-c3ccc(Cl)cc3)n3c2CCCCC3)c(OC)c1
 : ?, ?
CCOc1ccc(NC(=O)N2CCC(CN3CCC(C)CC3)CC2)cc1
 : -1.6%, -12.9%
CCN1CCC(N(Cc2ccc3c(c2)OCO3)C(=O)Nc2cc(F)ccc2F)CC1
 : -15.5%, -9.1%
Cc1noc(C)c1S(=O)(=O)Nc1ccc(C(=O)Nc2ccc(C(C)C)cc2)cc1
 : ?, -26.3%
COc1ccccc1Nc1sc(C(=O)c2ccc(C)cc2C)c(N)c1S(=O)(=O)c1ccccc1
 : -4.7%, -21.4%
CCc1ccccc1NC(=O)c1ccc2c(c1)c(C)c(C)n2Cc1ccccc1
 : ?, -12.3%
CCCCn1cc(S(=O)(=O)c2cc(C)ccc2C)c(=O)c2cc(F)c(N3CCC(C)CC3)cc21
 : -4.1%, -20.9%
COc1cc(Cl)c(C)cc1NC(=O)c1cc2c(=O)oc3ccccc3c2s1
 : -1.8%, 17.0%
CCCCN(CC)C(=O)CSc1nc2c(sc3ccccc32)c(=O)n1CCc1ccccc1
 : -39.1%, -6.9%
CCC(=O)N1CCc2cc(CNC(=O)c3ccc(F)cc3)ccc21
 : -4.0%, 21.2%
N#Cc1c(-n2ncnc2-c2cccc(Cl)c2)sc2c1CCCCC2
 : 8.7%, ?
CSc1ccc2c(c1)C(N1CCN(C)CC1)Cc1ccccc1S2 (stereo unspecified)
 : /, -18.9%
CCOc1ccc(-c2nnc(SCC(=O)NC(C)CC)nc2-c2ccc(OCC)c(OC)c2)cc1OC (stereo unspecified)
 : 1.2%, -2.5%
COc1ccc(NC(=O)c2ccc3nc(C(C)C)oc3c2)cc1OC
 : ?, -1.5%
Cn1c(=O)n(C)c2cc(NS(=O)(=O)c3ccc(C(C)(C)C)cc3)c(NCc3ccccc3)cc21
 : ?, 98.7%[activator]
CCc1ccccc1NC(=O)c1cc(S(=O)(=O)N2CCCc3ccccc32)ccc1F
 : ?, ?
COc1ccc(C(=O)NCCc2sc(-c3ccc(Cl)cc3)nc2C)c(OC)c1
 : ?, ?
Cc1ccnc2c1NC(=O)c1cccnc1N2C1CC1
 : /, ?
O=c1cc(N2CCOCC2)oc2c(-c3ccccc3)cccc12
 : /, 13.0%
Cc1ccc(N2C(=O)CSC23C(=O)N(CC(=O)Nc2ccccc2F)c2ccccc23)cc1C (stereo unspecified)
 : -16.7%, -17.8%
CCN(CC)S(=O)(=O)c1ccc(C(=O)Nc2nc3ccc(Cl)cc3s2)cc1
 : -12.1%, -18.9%
COc1ccc(S(=O)(=O)NCC(c2cccs2)S(=O)(=O)c2ccccc2)cc1OC (stereo unspecified)
 : ?, -16.0%
CN(C1CCCCC1)S(=O)(=O)c1ccc2c(c1)c(=O)c(C(=O)N1CCN(c3ccccc3)CC1)cn2C
 : 1.1%, -2.5%
COc1cccc(C2=CC(c3ccc(OC)c(OC)c3OC)n3ncnc3N2)c1 (stereo unspecified)
 : -12.7%, -7.2%[11.5 µM]
Cc1ccccc1CSc1cn(CC(=O)N2CCCCC2)c2ccccc12
 : ?, -2.8%
CC(C)(C)OC(=O)N1CCC(c2c(C(=O)NCc3ccc4c(c3)OCO4)cnn2-c2ccc(F)cc2F)CC1
 : ?, -26.6%
COc1cc2c(cc1OC)C(c1cccc(Cl)c1)CC(=O)N2 (stereo unspecified)
 : ?, -22.9%
Nc1nc(Cl)nc2c1ncn2[C@@H]1O[C@H](CO)[C@@H](O)[C@H]1F
 : /, ?
Cc1ccc2ccc3cc(C(=O)N4CCN(c5ccccc5)CC4)nc3c2[nH]1
 : -14.5%, ?
CCCOc1ccc(-c2nc(SC)[nH]c(=O)c2C#N)cc1OC
 : -26.9%, ?
COC(=O)c1cc2oc3ccccc3c2n1Cc1ccc(Cl)cc1
 : -12.3%, -5.1%
O=C(Cn1c(=O)n(Cc2ccccc2)c(=O)c2oc3ccccc3c21)Nc1ccc(Cl)cc1
 : -16.2%, -2.1%
CC1CCN(c2nc3ccc(C(=O)NCCc4ccc(S(N)(=O)=O)cc4)cc3s2)CC1
 : -1.5%, 0.398µM*
CC(C)(C)c1ccc(C(=O)NCC(c2ccco2)S(=O)(=O)c2ccccc2)cc1 (stereo unspecified)
 : ?, ?
Cc1nc(CC(=O)Nc2cc(Cl)ccc2C)cs1
 : 16.4%, -3.5%
O=C(Cn1c(=O)n(-c2ccccc2Cl)c(=O)c2sc3ccccc3c21)NC1CCCC1
 : ?, -18.4%
COc1ccc(NC(=O)CSc2nc(-c3ccc(OC)cc3)cc(=O)[nH]2)cc1
 : 8.4%, 9.2%
CCCCN(CC)CCNC(=O)CCn1cnc2onc(-c3ccc(F)cc3)c2c1=O
 : ?, -0.9%
CCCCN(CC)CCNC(=O)c1cc2c(=O)oc3ccc(C)cc3c2s1
 : ?, -1.7%
CC(C)CCn1nnc2sc(-c3ccccc3)cc2c1=O
 : 7.1%, 40.4%[activator]
COC(=O)c1ccc(NC(=O)C(=O)NCCc2csc(-c3ccc(C(F)(F)F)cc3)n2)cc1
 : 0.5%, -3.8%
COc1ccc(C(=O)N2CCCCC2CCN2CCCCC2)cc1 (stereo unspecified)
 : -5.8%, -8.2%
CCOC(=O)C1=C(CNCc2ccccc2)NC(=O)NC1c1ccc(C)cc1 (stereo unspecified)
 : -27.0%, -13.7%
CCc1ccc(-n2c(C)nnc2SCc2nc(-c3ccc(OC)cc3)no2)cc1
 : ?, ?
Cc1cccn2c(=O)c3cc(C(=O)NC(C)(C)C)n(C)c3nc12
 : -29.9%, 26.2%
COc1ccc2c(CC(=O)Nc3ccc(C)cc3)coc2c1
 : -11.6%, 2.8%
CCC(=O)N1CCc2cc(S(=O)(=O)NC(CC(C)C)C(=O)NCCc3ccccc3)ccc21 (stereo unspecified)
 : 6.4%, -22.1%
O=C(Nc1ccc(C(=O)OCc2cc(=O)n3c4c(sc3n2)CCCC4)cc1)c1cccc(F)c1
 : 16.5%, -5.3%
CC1CCCCN1C(=O)Cn1c(SCC(=O)N(C)c2ccccc2)nc2ccccc21 (stereo unspecified)
 : -19.7%, 2.6%
Cc1c(C(=O)N(Cc2ccc(N(C)C)cc2)C2CCS(=O)(=O)C2)oc2ccccc12 (stereo unspecified)
 : 5.3%, 4.0%
CCN(CCO)CCCOc1ccc2c(Nc3cc(CC(=O)Nc4cccc(F)c4)[nH]n3)ncnc2c1
 : /, 0.3%
O=C(CCSCc1ccc(Cl)cc1)NCc1ccc(F)cc1Cl
 : -4.4%, ?
Clc1ccc(CN2CCN(c3ncnc4sc5c(c34)CCCC5)CC2)cc1Cl
 : ?, -16.0%
COc1ccc(CNC(=O)CCc2c(C)nn(-c3ccc(N4CCOCC4)nn3)c2C)c(OC)c1
 : 35.1%, -13.6%
COc1ccc(/C=C/c2nc(C#N)c(N3CCC(C(N)=O)CC3)o2)cc1OC
 : -6.5%, 6.7%

Single records (already shown). Screens in order: PMP22 txn	HTT prom inh
COc1ccc2c(CC(=O)Nc3ccc(C)cc3)coc2c1 across the screens: -11.6%	2.8%
COc1ccc(CNC(=O)CCc2c(C)nn(-c3ccc(N4CCOCC4)nn3)c2C)c(OC)c1 across the screens: 35.1%	-13.6%
